KCNQ2 pot: KCNQ2 (rat) channel potentiation; O88943; CHO-K1 KCNQ2, FluxOR thallium flux fluorescence; active compounds read high; B-score at 10 µM; actives 0.54% (n = 310,000); AID 2239;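 active means fluorescence ratio B-score at least 3 SD of library B-scores, with initial fluorescence B-score within 3 SD, cut at about 5.3 in these data; same plate scores as AID 2156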;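 further: B-score of peak minus minimum over baseline fluorescence ratio after K+ and Tl+ stimulus; positive B-score means potentiation of KCNQ2 with more thallium influx and brighter signal; only the inactives scoring about 0 or higher are listed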
Target sequence (O88943 whole entry, looked up): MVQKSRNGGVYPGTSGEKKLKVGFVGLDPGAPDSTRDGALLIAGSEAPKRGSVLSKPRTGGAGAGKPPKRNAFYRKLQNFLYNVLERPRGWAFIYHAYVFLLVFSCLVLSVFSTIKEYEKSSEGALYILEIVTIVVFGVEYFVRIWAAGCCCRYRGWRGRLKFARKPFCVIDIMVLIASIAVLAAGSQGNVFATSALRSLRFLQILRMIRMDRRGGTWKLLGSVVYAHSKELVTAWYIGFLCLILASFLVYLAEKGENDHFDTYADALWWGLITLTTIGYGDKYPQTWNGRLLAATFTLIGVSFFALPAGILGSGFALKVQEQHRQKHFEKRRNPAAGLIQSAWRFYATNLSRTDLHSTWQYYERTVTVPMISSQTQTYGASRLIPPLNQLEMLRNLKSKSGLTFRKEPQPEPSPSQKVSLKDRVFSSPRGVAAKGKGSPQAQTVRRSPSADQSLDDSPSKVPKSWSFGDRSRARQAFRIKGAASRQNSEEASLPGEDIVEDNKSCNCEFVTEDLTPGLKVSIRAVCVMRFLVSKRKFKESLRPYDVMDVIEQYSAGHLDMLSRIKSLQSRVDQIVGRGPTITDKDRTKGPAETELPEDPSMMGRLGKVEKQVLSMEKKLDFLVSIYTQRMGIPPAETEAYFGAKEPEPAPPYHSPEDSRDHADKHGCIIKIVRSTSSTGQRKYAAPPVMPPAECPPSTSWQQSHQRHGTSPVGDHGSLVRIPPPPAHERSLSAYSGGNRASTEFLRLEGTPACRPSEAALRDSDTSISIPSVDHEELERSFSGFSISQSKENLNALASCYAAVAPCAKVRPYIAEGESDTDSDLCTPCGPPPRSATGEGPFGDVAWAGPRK
KCNQ2 pot baseline: further read-out of KCNQ2 pot, marked with its call; B-score; compound at 10 µM; measured here: initial fluorescence intensity artifact check;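 brightness before thallium and not channel activity; 0 = typical well and far values either way flag optical interference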
* marks the source's active call; other numbers are inactive results; . = not tested or not shown. Only part of the results is shown (hit frequency here may not be typical).

SMILES	KCNQ2 pot	KCNQ2 pot baseline
O=c1cc(O)nc(SCc2ccccc2)n1-c1ccccc1	0.89	.
COc1ccccc1NC(=O)c1ccc2nc(C)sc2c1	0.02	-0.68
COc1ccc(OCCSc2nnc(C)n2-c2ccccc2)cc1	1.38	0.1
CC1(C)C=Cc2c(ccc(-c3coc4cc(O)ccc4c3=O)c2O)O1	0.08	0.15
COCCN(CCOC)C(=O)C1CCN(c2ccc(S(=O)(=O)N3CCOCC3)cc2[N+](=O)[O-])CC1	0.64	-0.02
CCN(CC(=O)NCc1ccco1)S(=O)(=O)c1ccc(F)cc1	1.03	0.12
COc1cc(/C=C2\SC(=O)N(c3ccc(O)cc3)C2=O)cc(OC)c1OC	0.4	-1.5
Cn1cccc1C(=O)NC(=O)COC(=O)CNC(=O)CNC(=O)c1ccc(Cl)cc1Cl	0.7	0.79
CCN1CCN(c2nnc(-c3ccccc3)c3ccccc23)CC1	0.32	-0.71
COc1ccccc1CNC(=O)Cn1c(=O)oc2cc(S(=O)(=O)N3CCCC3)ccc21	1.94	-1.6
CCOc1ccc(C(=O)COC(=O)Cc2n[nH]c(=O)c3ccccc23)cc1	0.01	0.13
O=C(NCCc1ccc2c(c1)OCCO2)c1ccccn1	0.23	-0.69
CC12CN3CC(C)(CN(C1)C3c1ccc(Br)cc1)C2=O (centres undefined)	0.97	1.32
O=C(NCC1CCCO1)C1CC(c2ccc(Cl)c(Cl)c2)=NO1 (centres undefined)	0.5	-0.58
O=C(N/N=C/c1cccc2nccnc12)c1ccncc1	0.94	0.2
CC1(N2CCCCC2)C(=O)c2ccccc2C1=O	1.01	0.06
Cn1c(=O)[nH]c(=O)c2c1nc(N1CCNCC1)n2Cc1ccccc1Cl	0.34	-0.37
CC1Cc2nc(SCC(=O)Nc3ccccc3F)n(C)c(=O)c2S1 (centres undefined)	1.27	0.24
COC(=O)CNC(=O)c1cccc(F)c1	2.34	-0.92
Cc1ccsc1/C=C(/C#N)C(=O)NCc1ccccc1	1.14	-2.63
Cc1cc(C)c(C)c(S(=O)(=O)N2CCN(C(=O)CCC(=O)N3CCOCC3)CC2)c1C	0.84	1.25
COCC(=O)Oc1c(S(=O)(=O)c2ccc(C)cc2)c(C)nn1-c1ccccc1	0.01	-1.16
CN(C)S(=O)(=O)c1ccc(Cl)c(NC(=O)COC(=O)CC(NC(N)=O)c2ccc(Cl)cc2)c1 (centres undefined)	0.42	0.8
CCC1CCCCN1CCCNC(=O)Cn1c2ccccc2c2nc(=O)cc(C)n21 (centres undefined)	0.29	2.93
NC(=S)c1cc2cc(Cl)ccc2oc1=O	0.04	0.68

Arranged by value in KCNQ2 pot baseline (high to low): 6 from the list above
SMILES	KCNQ2 pot	KCNQ2 pot baseline
CCC1CCCCN1CCCNC(=O)Cn1c2ccccc2c2nc(=O)cc(C)n21 (centres undefined)	0.29	2.93
Cn1cccc1C(=O)NC(=O)COC(=O)CNC(=O)CNC(=O)c1ccc(Cl)cc1Cl	0.7	0.79
CC1(C)C=Cc2c(ccc(-c3coc4cc(O)ccc4c3=O)c2O)O1	0.08	0.15
CC1(N2CCCCC2)C(=O)c2ccccc2C1=O	1.01	0.06
COc1ccccc1NC(=O)c1ccc2nc(C)sc2c1	0.02	-0.68
O=C(NCCc1ccc2c(c1)OCCO2)c1ccccn1	0.23	-0.69

Returning to the listing; the 3 compounds before the break are reprinted first.
SMILES	KCNQ2 pot	KCNQ2 pot baseline
CN(C)S(=O)(=O)c1ccc(Cl)c(NC(=O)COC(=O)CC(NC(N)=O)c2ccc(Cl)cc2)c1 (centres undefined)	0.42	0.8
CCC1CCCCN1CCCNC(=O)Cn1c2ccccc2c2nc(=O)cc(C)n21 (centres undefined)	0.29	2.93
NC(=S)c1cc2cc(Cl)ccc2oc1=O	0.04	0.68
CCc1nn(CC(=O)NCCCN2CCc3ccccc3C2)c(=O)c2cc3sccc3n12	0.67	-1.33
COCCNC(=O)C(c1ccc(Cl)cc1)N(CCOC)C(=O)CCC(=O)Nc1ccccn1 (centres undefined)	1.43	0.92
CCOC(=O)c1sc(NC(=O)c2ccc3ncsc3c2)nc1C	0.02	1.28
Cc1cccc(NCc2nnc(-c3ccccc3)o2)c1C	1.63	3.03
O=C(COc1ccccc1)Nc1nc2cc3c(cc2s1)OCCO3	0.28	-0.7
Cc1cccc(C(=O)Nc2ccccc2C(=O)OCC(=O)Nc2ccc(C#N)cc2)c1	0.95	0.62
O=C(Nc1ccc2c(c1)OCCO2)C1CCN(C(=O)c2ccc(Br)cc2)CC1	0.26	-0.36
CNc1cc(CS(=O)c2ccccc2)nc(-c2ccccc2)n1 (centres undefined)	1.57	-0.04
Cc1ccc(C2=N/C(=C/N3CCOCC3)C(=O)O2)cc1	0.48	0.58
COc1cc(C(=O)OCC(=O)c2cc(C)n(C)c2C)cc(NC(=O)c2ccco2)c1OC	0.46	1.12
CCCC(=O)Oc1ccc(N(C(=O)CCC)S(=O)(=O)c2cccs2)cc1	1.48	-1.28
CCN(CC)S(=O)(=O)c1cc(OCC(N)=O)c(C)cc1Cl	1.05	0.02
Cc1nn(C)c(NC(=O)c2ccc(Cl)cc2Cl)c1Br	1.96	0.52
COc1ccc(CCNC(=O)CSc2nc(=O)[nH]c3c2CCC3)cc1OC	0.03	1.13
CC(=O)Oc1c(S(=O)(=O)c2ccc(C)cc2)c(C)nn1-c1ccccc1	0.66	1.21
CCOC(=O)c1c[nH]c2c(C)cc(C)cc2c1=O	1.76	0.11
CC(C)n1c(CN2CCN(C(=O)c3ccco3)CC2)nc2c1c(=O)n(C)c(=O)n2C	0.82	1.7
CCN1CCN(c2ccc(S(=O)(=O)N3CCOCC3)cc2NC(=O)/C=C/c2ccc(OC)cc2OC)CC1	0.2	0.24
Cc1cccc(NC(=O)CN2C(=O)N/C(=C/c3cc(C)n(C(C)C)c3C)C2=O)c1	1.81	0.11
O=C(NC1CCCCC1)C1CCCN(S(=O)(=O)c2cnc[nH]2)C1 (centres undefined)	0.74	2.27
Nc1c(Cl)cc(C2=NCCn3nc4cc(C(F)(F)F)ccc4c32)cc1Cl	3.53	-1.11
COc1cc(/C=C/C(=O)O)cc(S(=O)(=O)NC2CC2)c1OC	0.55	-2.68
COc1ccccc1-c1c(C)oc2c(CN3CCOCC3)c(O)ccc2c1=O	0.37	-0.12
COc1cc(/C=N/NC(=O)c2cccnc2)ccc1OS(=O)(=O)c1ccc(F)cc1	1.79	-0.51
COc1ccccc1N1CCN(C(=O)c2coc(=O)c(Br)c2)CC1	0.05	-0.55

The list goes on:
SMILES	KCNQ2 pot	KCNQ2 pot baseline
O=C(O)c1cc(-c2ccc(/C=N/N3C(=O)C4C5C=CC(CC5)C4C3=O)o2)ccc1Cl (centres undefined)	0.2	-1.28
CC(C)CC(C(=O)O)N1C(=O)C2C3CC(C2C1=O)C1C(c2ccccc2)c2sc(=O)[nH]c2SC31 (centres undefined)	0.65	-0.45
Cc1cc2nc(C3CCN(C(=S)NCCCOC(C)C)CC3)[nH]c2cc1C	1.69	-1.13
O=C1Nc2ccc(S(=O)(=O)NCc3ccccn3)c3cccc1c23	1.73	0.27
Cc1nn(C)c(C)c1CNC(=O)c1cc2n(n1)C(C(F)(F)F)CC(c1cccs1)N2 (centres undefined)	1.34	-0.92
COC(=O)CC1C(=O)NCCN1C(=S)NC(=O)c1sc2ccccc2c1Cl (centres undefined)	0.19	0.38
COc1ccc(CNC(=O)COc2ccc(C)nc2[N+](=O)[O-])cc1	0.29	-1.73
Cc1nc2c(c(C)nn2-c2ccccc2)c(C)c1CCC(=O)NCCCOC(C)C	0.24	-2.62
CCOC(=O)C1(c2csc(N)n2)COC(=O)C1 (centres undefined)	0.41	-2.51
COc1ccc(-c2nnn(CC(=O)N(CC(=O)NC3CCCC3)c3ccccc3)n2)cc1OC	0.88	0.33
Cc1nnc(SCC(=O)Nc2ccccc2F)n1Cc1ccco1	1.5	-0.82
COc1ccc2oc(=O)c(C(=O)C[n+]3cccc(C)c3)cc2c1	0.94	1.32
Cc1ccccc1C(=O)NN1C(=O)CSC1=S	0.74	0.08
O=C(Nc1ccccc1)OCC1CCCN2CCCCC12 (centres undefined)	0.74	-1.62
C/C(=N\Nc1ccc(Cl)c(C(=O)O)c1)c1cccc([N+](=O)[O-])c1	0.87	0.93
O=C(Nc1ccc2ncccc2c1)c1cccc(Br)c1	0.68	-1.1
CN(C)S(=O)(=O)c1ccc(C(=O)OCC(=O)c2ccc3c(c2)NC(=O)CO3)cc1	0.17	-0.58
O=C(CCC1CCCCC1=O)c1ccccc1 (centres undefined)	0.21	-1.33
O=C(COC(=O)/C=C/c1ccc(OC(F)F)cc1)Nc1cccc(S(=O)(=O)N2CCCC2)c1	0.32	0.56
CCOC(=O)N1CCN(S(=O)(=O)c2ccc(F)c(C(=O)Nc3cccc(Cl)c3C)c2)CC1	1	-0.04
CCSc1nnc(C)n1-c1ccc(C(=O)O)cc1	1.24	0.47
O=C(CN1CCCCC1)NC1CCc2cc3c(cc21)CCC3 (centres undefined)	0.78	1.42
CCCCNC(=O)c1cc([N+](=O)[O-])[nH]n1	1.26	-0.41
C/C=C(/C)C(=O)O[C@@H]1[C@H](OC(=O)C=C(C)C)c2c(ccc3ccc(=O)oc23)OC1(C)C	0.52	0.69
CC1CCCCC1N1CN=C(Nc2nc3ccccc3s2)NC1 (centres undefined)	0.86	0

Reprinted at random: five entries already listed.
SMILES	KCNQ2 pot	KCNQ2 pot baseline
CC(C)CC(C(=O)O)N1C(=O)C2C3CC(C2C1=O)C1C(c2ccccc2)c2sc(=O)[nH]c2SC31 (centres undefined)	0.65	-0.45
C/C=C(/C)C(=O)O[C@@H]1[C@H](OC(=O)C=C(C)C)c2c(ccc3ccc(=O)oc23)OC1(C)C	0.52	0.69
C/C(=N\Nc1ccc(Cl)c(C(=O)O)c1)c1cccc([N+](=O)[O-])c1	0.87	0.93
Cc1nc2c(c(C)nn2-c2ccccc2)c(C)c1CCC(=O)NCCCOC(C)C	0.24	-2.62
COc1ccc2oc(=O)c(C(=O)C[n+]3cccc(C)c3)cc2c1	0.94	1.32

(further entries)
SMILES	KCNQ2 pot	KCNQ2 pot baseline
O=C(CSc1nccc(-c2cccs2)n1)Nc1ccc(Cl)cc1	1.39	-0.11
Cn1nc(C(C)(C)C)c([N+](=O)[O-])c1C(=O)N1CCOCC1	2.34	-0.99
Cc1cc(NC(=O)C2CC(=O)N(c3cccc(Cl)c3)C2)no1 (centres undefined)	1.03	-0.29
S=C1CCSc2ccc(Cl)cc2N1	0.67	-1.09
COc1ccc(CNC(=O)CSc2nnc(C(F)(F)F)n2C)cc1	0.52	0.06
CCc1ccccc1NS(=O)(=O)c1ccc(SC)cc1	0.04	6.38
CCn1c(N)c(C(=O)NCCCOC)sc1=S	0.62	0.01
C=CCn1c(C)cc(C(=O)CSc2ccc(NC(C)=O)cc2)c1C	1.13	-1.22
CCCc1[nH]nc2c1C1(C(=O)N(CC)c3ccccc31)C(C#N)=C(N)O2 (centres undefined)	0.07	-1.06
Cc1c(O)cc2n(c1=O)-c1ccc(Cl)cc1C2(C)C	0.01	-0.55
NC(=O)c1ccc(-n2nnnc2SCC(=O)Nc2ccc(N3CCOCC3)c(Cl)c2)cc1	1.1	-0.57
O=c1[nH]c(SCc2ccccc2)nnc1-c1ccccc1	1.14	-0.21
O=C(C[n+]1ccccc1)N/N=C/c1ccco1	0.64	-1.43
CCC1(CC)C(=O)C2=C3C1[C@H](C(=O)OC)C=C(C(=O)OC)C[C@H]3[C@H]1C(=O)NC(=O)[C@H]1[C@H]2C (some centres undefined)	0.13	0.21
CNC(=S)N1C2CCC1CC(NC(=O)NC13CC4CC(CC(C4)C1)C3)C2 (centres undefined)	1.02	0.16
COc1cc(OC)cc(C(=O)Nc2ccccc2C(=O)NCc2cccnc2)c1	1.46	-1.44
CC1(C)CNC(=O)CC(C)(C)N1	1.14	-1.47
CNc1nc(OCC(F)(F)F)nc(OCC(F)(F)F)n1	1.7	-0.04
Cc1cc(C)cc(C(=O)NCCn2cc(SCC(=O)N3CCOCC3)c3ccccc32)c1	0.2	-0.3
[O-][n+]1c2c(nn1-c1ccccc1Cl)-c1nonc1CC2	1.64	0.45
COc1cccc(C2CC(c3ccc(C)cc3)n3ncnc3N2)c1 (centres undefined)	0.55	-0.7
CCOC(=O)C1CCN(C(=O)Nc2ccc3nccnc3c2)CC1	0.45	-0.19
O=C(CCCC(=O)N(CC(=O)NC1CCCC1)Cc1ccc2c(c1)OCO2)Nc1ccccn1	0.21	-1.11
O=C(O)c1cccc(Oc2ncnc3sc4c(c23)CCCC4)c1	1.11	-0.13
Nc1cccc(S(=O)(=O)c2cccc(N)c2)c1	1.01	0.78

Continued:
SMILES	KCNQ2 pot	KCNQ2 pot baseline
C=C1CCN(c2ccc(C(=O)O)cc2[N+](=O)[O-])CC1	1.3	-0.61
Cc1ccc(NC(=O)C2(N(CC(C)C)C(=O)Cn3nnnc3N)CCCCC2)cc1	0.99	-0.87
O=C(NC1CCN(S(=O)(=O)c2ccc(F)cc2)CC1)c1ccccc1	0.37	0.02
COCCn1c(SCC(=O)NC2CCCC2)nnc1C(C)C	1.54	1.26
COc1cc(C2N(c3ccccc3)CCN2c2ccccc2)ccc1OC(C)=O	0.45	-0.05
CCOC(=O)CSc1nc2sc(C)c(C)c2c(=O)n1C	0.44	-0.48
CCOc1c(Br)cc(CNc2ncn[nH]2)cc1OC	0.79	0
CC1=NN(C(N)=S)C(=O)C1N=Nc1ccc(S(N)(=O)=O)cc1 (centres undefined)	2.23	-1.33
CCOC(=O)c1n[nH]n2c1nc(=S)c1ccccc12	8.17*	0.34*
NS(=O)(=O)c1ccc(CCNC(=O)COC(=O)c2cc([N+](=O)[O-])ccc2N2CCOCC2)cc1	1.77	0.16
CCN1CCCc2cc(CN(CCN3CCOCC3)C(=S)Nc3ccc(OC)c(OC)c3)ccc21	1.55	0.84
O=C(Nc1cccc(-c2cnc3ccccc3n2)c1)c1ccncc1	1.35	-1.28
CCOC(=O)c1nnn(-c2nonc2-n2cccc2)c1CN1CCOCC1	0.63	1.81
O=C(/C=C/c1ccc(Cl)cc1Cl)NCc1ccncc1	0.24	-1.45
CCc1ccccc1NC(=O)CN(C)Cc1c(O)ccc2ccccc12	0.11	-0.42

Bioassay records deposited in PubChem BioAssay by Johns Hopkins Ion Channel Center.
